RanGTP-Impb inh – inhibitors of RanGTP-importin-beta interaction, primary screen, biochemical, FRET, CFP-Ran, YFP-importin-beta, homogeneous; inhibition, % (concentration not given with the values); 1.1% of 300,000 active; cell-free CFP-Ran/YFP-importin-beta FRET ratio; Ran GTPase (GTP-bound) - importin-beta complex;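 active means most replicates above 15%; inconclusive means exactly half above 15%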;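 further: 0% = DMSO wells and 100% = Ran loaded with GDP instead of GTP; wells of about 40 µL received 100 nL stock; the first replicate is given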
HNF4A DNA FP – change in binding of human HNF4A to DNA, primary screen, biochemical, fluorescence polarization, FITC-DNA | 0.3% of 360,000 active | activity change, % at 10 µM | 1 h | Hepatocyte nuclear factor 4-alpha (Homo sapiens), P41235; in the data active means activity change above about 30%, passing the limit was not always enough;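 further: controls were the assay level and a saturating level of protein; the project sought stronger binding though the title names inhibitors; some compounds called inactive have numbers as strong as hits; positive values seem to mean higher polarization but the record does not say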
Target sequence (P41235 whole entry, looked up): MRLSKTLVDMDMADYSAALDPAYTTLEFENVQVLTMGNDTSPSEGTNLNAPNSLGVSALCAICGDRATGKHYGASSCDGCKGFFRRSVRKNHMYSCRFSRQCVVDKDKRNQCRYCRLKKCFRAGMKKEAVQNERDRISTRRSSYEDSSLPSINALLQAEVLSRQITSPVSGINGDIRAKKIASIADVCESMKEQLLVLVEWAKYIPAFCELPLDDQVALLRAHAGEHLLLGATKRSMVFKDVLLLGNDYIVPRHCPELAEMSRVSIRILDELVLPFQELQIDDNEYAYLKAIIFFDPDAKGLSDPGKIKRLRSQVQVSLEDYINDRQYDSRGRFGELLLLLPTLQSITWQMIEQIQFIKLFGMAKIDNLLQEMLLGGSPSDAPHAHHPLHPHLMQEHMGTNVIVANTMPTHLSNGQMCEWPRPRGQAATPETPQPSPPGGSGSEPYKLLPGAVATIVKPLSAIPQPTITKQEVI
Vif A3G – inhibitors of Vif binding to APOBEC3G peptide, primary screen, biochemical, TR-FRET, GST-Vif 1-94, biotin-A3G peptide, dose response retest (AID 1117319). Virion infectivity factor (Human immunodeficiency virus type 1 group M subtype B (isolate …. TR-FRET GST-Vif / biotin-A3G peptide binding; higher % means a stronger effect; test concentration not given here; strong numbers were not always called active. 0.57% of 260,000 active. one-dose inhibition, %; IC50 in µM for titrated hits;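 active means above the screen mean plus three standard deviations and confirmed in dose response; inconclusive means results disagree or hit not tested in dose response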;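 further: Vif residues 1-94 fused to GST binding biotinylated APOBEC3G peptide 110-148; 0% = full assay without inhibitor and 100% = GST in place of GST-Vif; retest series ran down from 100 µM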
FGF22 binding – binders of human FGF22 protein, primary screen, FGF22 synaptogenesis inhibitor project, biophysical, thermal shift, single point; recombinant FGF22 thermal shift, SYPRO orange fluorescence; percent of sucrose octasulfate shift, DMSO zero; 1.5% of 340,000 active; calls only at 9.99 µM;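 active means melting point raised past a set limit in the mean and every replicate; inconclusive means no clear call; three in four hits are not shown here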
Target sequence (Q9HCT0 whole entry, looked up): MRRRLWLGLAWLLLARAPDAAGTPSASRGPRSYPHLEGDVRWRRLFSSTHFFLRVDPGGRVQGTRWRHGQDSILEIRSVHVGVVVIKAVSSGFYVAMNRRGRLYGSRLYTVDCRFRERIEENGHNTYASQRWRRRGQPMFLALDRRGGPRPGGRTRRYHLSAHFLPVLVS
E coli growth – E. coli growth inhibition, primary screen, OD600; 0.21% of 330,000 active; OD600 absorbance (test concentration not listed); Escherichia coli growth, 23 h; stronger effect = lower value; AID 1053175, 2014;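 active means OD600 absorbance below the run mean of sample wells minus 3.6 SD, in any replicate, cut at about 0.56 in these data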;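 further: stock transfer was 300 nL into about 60 µL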
UCH37 inh – inhibitors of human UCH37 deubiquitinase, primary screen, biochemical, Ub-AMC cleavage, fluorescence; Ubiquitin carboxyl-terminal hydrolase isozyme L5 (Homo sapiens), Q9Y5K5; purified proteasome/UCH37; inhibition, % (concentration not given with the values); 0.33% of 330,000 active;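 active means mean of two replicates above 20%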;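 further: 0% = compound-free wells with enzyme and 100% = wells lacking proteasome; stock transfer was 100 nL into about 20 µL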
Target sequence (Q9Y5K5 whole entry, looked up): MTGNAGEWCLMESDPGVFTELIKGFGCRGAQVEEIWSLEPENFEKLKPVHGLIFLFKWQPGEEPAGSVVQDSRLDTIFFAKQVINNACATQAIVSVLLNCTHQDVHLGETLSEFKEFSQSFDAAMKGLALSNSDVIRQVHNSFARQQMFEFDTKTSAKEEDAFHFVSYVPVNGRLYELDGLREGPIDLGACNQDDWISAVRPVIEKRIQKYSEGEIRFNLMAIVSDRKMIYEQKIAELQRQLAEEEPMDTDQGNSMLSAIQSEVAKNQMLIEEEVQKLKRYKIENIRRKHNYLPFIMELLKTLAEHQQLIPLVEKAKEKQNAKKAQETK
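system = Proteasome-associated human UCH37 deubiquitinase | amount = 0.15 nM proteasome as dispensed | medium = pH 7.4 Tris-HCl (50 mM) with ovalbumin, ATP-MgCl2, DTT | incubation = 30 min preincubation with enzyme, 25 min cleavage at room temperature | detection = AMC fluorescence 355/460 nm | read-out basis = percent inhibition | controls = no-proteasome and no-compound wells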
MLL AF4-AF9 inh – inhibitors of AF4 peptide binding to AF9, primary screen, biochemical, AlphaScreen, biotin-AF4 peptide, FLAG-AF9, single point | inhibition, % at 10 µM | 0.47% of 350,000 active | Protein AF-9 (Homo sapiens), P42568;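 active means every replicate reaching a set inhibition limit, whatever the replicate mean, cut at about 25% in these data; inconclusive means mean inhibition reaches that limit but some replicates miss it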;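 further: 0% = plate neutral control median and 100% = total signal loss; the record names both 10 and 1 µM as test concentration; the first replicate is given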
Active calls of the source: *; i = inactive; ? = inconclusive; / = not tested or not shown. Some of the compounds tested; the hit share may differ from the screen's.

SMILES | RanGTP-Impb inh | HNF4A DNA FP | Vif A3G | FGF22 binding | E coli growth | UCH37 inh | MLL AF4-AF9 inh
O=C(CCN=C1NS(=O)(=O)c2ccccc21)OCc1nnc(-c2ccccc2)o1 | -1.8 | 0.9 | / | i | 0.66 | 0.2 | -8.7
CCn1cc(C(=O)O)c(=O)c2cc(F)c(N/N=C/c3ccccc3[N+](=O)[O-])cc21 | 3.7 | 14 | ? | i | / | / | -0.1
CCc1nc2ccc(C(=O)Nc3cccc(OC)c3)cn2c1N(CCC(C)C)CCN(C)C | / | 0.4 | / | i | / | / | 11
COc1cnc(SCc2c(Cl)cccc2Cl)nc1Cl | 3.6 | 2.4 | 75% | i | 0.73 | 0.3 | -12
COc1ccc(NC(=O)c2cc3c(CO)cnc(C)c3oc2=Nc2cccc(F)c2)c(OC)c1 | -2.4 | -2.8 | 0% | i | 0.67 | 4.0 | 1.9
CCOC(=O)N(C)c1c(CC)nc2c(OCc3ccc(S(C)(=O)=O)cc3)cccn12 | / | -2.9 | / | i | / | / | -1.7
Cn1c(=O)c2c(-c3ccc(C(C)(C)C)cc3)n(N3CCOCC3)cc2n(C)c1=O | 7.9 | 0.4 | 27% | / | 0.69 | -13 | /
CC1CCC2C(=O)N(c3cccc(OS(=O)(=O)c4ccccc4)c3)C(=O)C2C1 (stereo unspecified) | -1.3 | -0.4 | 13% | i | 0.7 | 4.3 | 1.5
Cc1cc(O)c(C(=O)/C=C/c2ccccc2Br)c(=O)o1 | 0.1 | 3.5 | 10% | i | / | / | 6.4
COC(=O)c1c(NC(=O)CN2C(=O)C(=O)N(CC(C)C)C2=O)sc(C)c1C | ? | 3.2 | / | i | 0.71 | 1.1 | -1.3
O=C(Nc1cnc2ccccc2c1)C1COc2ccccc2O1 (stereo unspecified) | -0.7 | -1.0 | 8% | / | 0.66 | 3.2 | /
COCCN1C(=O)c2ccc(C(=O)Nc3nccs3)cc2C1=O | 1.3 | 0.3 | -5% | / | 0.71 | 1.1 | /
O=C(NC(=S)Nc1ccc(CN2CCOCC2)cc1)c1cc2ccccc2o1 | / | -0.5 | -7% | i | 0.68 | 6.3 | 0.2
CCNC(=S)NNC(=O)c1csc(C(C)C)c1 | 4.4 | 0.4 | 1% | / | 0.67 | 2.4 | /
CCOCCCNC(=O)C(NC(=O)c1ccc(NC(C)=O)cc1)c1ccccc1 (stereo unspecified) | ? | 1.2 | 0% | i | 0.62 | -0.1 | -13
Cc1ccc(-n2c(SCC(=O)NCCN3C(=O)CSC3=O)nnc2-c2ccccc2F)cc1 | -2.4 | -0.8 | 28% | / | 0.72 | 2.7 | /
O=C(CCn1c(=O)sc2ccccc21)NCc1ccc2c(c1)OCO2 | -1.7 | 1.9 | 1% | / | 0.65 | 3.9 | /
CC(=O)N1c2ccc(S(=O)(=O)N3CCC(C(=O)Nc4ncccc4C)CC3)cc2CC1C (stereo unspecified) | 2.4 | -1.6 | / | i | 0.68 | 2.2 | -2.1
O=C(c1cc(-c2ccccc2)on1)N1CCCc2ccccc21 | ? | 0.6 | / | i | 0.66 | 3.6 | -0.3
CC(C)c1ccc2[nH]c(O)c(N=NC(=O)c3ccc(CSc4nncn4C)cc3)c2c1 | -2.8 | 0.4 | / | / | 0.69 | 2.5 | /
COc1cc(Cl)c(NS(=O)(=O)c2c(C(=O)N3CCCC3)c(C)n(C)c2C)c(OC)c1 | 3.3 | -1.6 | / | i | 0.72 | 4.7 | 4.9
CCOC(=O)CSc1nc2ccc(Nc3nc(N4CCOCC4)nc(N4CCOCC4)n3)cc2s1 | 2.8 | 3.7 | 3% | / | 0.74 | -1.3 | /
CC(C)N1CCN(Cc2cc(F)ccc2-n2cccn2)CC1CCO (stereo unspecified) | 1.6 | -1.0 | ? | i | 0.67 | 0.2 | -0.6
O=C(O)C1CC2C3CC(C(=O)O)C(C3)C2C1 (stereo unspecified) | / | 2.2 | 7% | i | 0.69 | 1.7 | -4.7
CC(C)C(OC(=O)c1cccs1)C(=O)NC1CCCCC1 (stereo unspecified) | 3.6 | -3.5 | -1% | / | 0.68 | -1.0 | /
CC(NC(=O)COC(=O)COc1ccc(Cl)cc1)c1ccccc1 (stereo unspecified) | / | 0.7 | 4% | i | 0.69 | 4.3 | -2.1
COc1ccc([C@H]2[C@@H]3C=CCC[C@@]3(C)C(=O)N2Cc2ccccc2)cc1Cl | -1.8 | -5.0 | 9% | i | / | 4.5 | 1.6
CCC(Oc1ccccc1)C(=O)N1CCC(C(N)=O)CC1 (stereo unspecified) | -3.4 | 4.3 | 1% | / | 0.71 | 2.3 | /
Cc1ccc(S(=O)(=O)N2CCCC(C(=O)NC3CCCC3)C2)cc1Cl (stereo unspecified) | -0.3 | 0.4 | / | / | 0.65 | -2.2 | -1.5
CCOC(=O)C1CC=C(Cl)CC1C(=O)Nc1nccs1 (stereo unspecified) | 1.8 | 5.9 | 4% | / | 0.67 | 3.1 | /
COc1ccc(CNC(=O)c2ccc(-c3ccccc3)cc2)cc1OC | 0.2 | -0.9 | 5% | / | 0.72 | 6.2 | /
O=C(CCCN1C(=O)/C(=C/c2ccccc2Cl)SC1=S)NNC(=O)c1cccnc1 | -1.2 | -0.8 | 0% | i | 0.63 | 7.9 | -2.5
Cc1ccc(-n2cc(C(=O)O)c(=O)cc2C)c(C)c1 | -2.4 | 6.2 | / | i | 0.71 | 3.2 | -1.7
CC1CC(C)CN(S(=O)(=O)c2cccc(C(=O)N3C(=O)c4cccc(N)c4C3=O)c2)C1 (stereo unspecified) | 9.8 | -7.9 | 6% | / | 0.73 | -78 | /
O=C(Nc1cn(-c2ccccc2)nc1-c1ccccc1)c1ccccc1 | -2.0 | 2.6 | -3% | i | 0.57 | 1.6 | -11
CCCc1cc(=O)[nH]c(SCC(=O)NN(c2ccccc2)c2ccccc2)n1 | 0.1 | 0.7 | 8% | i | 0.66 | 5.3 | -0.6
CCCCCC(=O)N1C[C@@H](O)[C@H](n2cc(COC(=O)c3ccccc3)nn2)C[C@@H]1c1ccc(OC)cc1 | / | -1.4 | / | i | / | / | -0.6
COc1ccccc1-c1cc(C(=O)N2CCN(c3ccc(F)cc3)CC2)no1 | 2.7 | -0.8 | -5% | / | 0.73 | -0.6 | /
O=C(C(=O)c1cc(Br)ccc1O)c1cc(Br)ccc1O | / | -1.6 | -5% | i | 0.17* | 3.7 | -2.6
O=C1OC(c2ccc(Br)cc2)=N/C1=C\N1CCCCC1 | 2.8 | -3.1 | 73% | / | 0.68 | 0.1 | /
O=C(CC1Nc2ccccc2NC1=O)NCC1COc2ccccc2O1 (stereo unspecified) | ? | 8.4 | 13% | / | / | -7.1 | /
COc1ccccc1NC(=O)N1CCN(c2cc(-c3ccccc3)nc3ncnn23)CC1 | 6.8 | 2.0 | 19% | i | 0.73 | 4.1 | 5.3
Cc1ccc(-c2cc(C(F)F)n3ncc(C(=O)N4CCCCC4c4cccnc4)c3n2)cc1 (stereo unspecified) | 5.9 | 3.0 | -13% | i | 0.71 | -96 | -17
Cc1ccc(S(=O)(=O)N2CCOCC2)cc1NC(=O)COC(=O)C1CCC1 | / | -0.3 | / | i | / | / | -1.6
CCOc1ccccc1N(C(=O)c1snc(C(N)=O)c1N)C(C(=O)NC1CCCC1)c1ccco1 (stereo unspecified) | 0.2 | -1.0 | 2% | / | 0.66 | -58 | /
Cn1c(Cn2c(=O)sc3ccccc32)nnc1SCc1ccccc1 | 3.0 | 1.0 | 15% | i | 0.69 | 2.1 | -1.5
Cc1cc(C)cc(OCC(=O)Nc2cc(C)on2)c1 | -2.7 | 0.9 | 1% | i | 0.71 | 5.7 | 0.5
Cc1cc(C)c2nc(SCCC#N)nc(C)c2c1 | 4.5 | 3.0 | 0% | / | 0.77 | 2.1 | /
CC(C)C(=O)N1CCC2(CC1)Oc1ccc(Cl)cc1C(=O)C21CC(c2ccccc2)=NO1 (stereo unspecified) | 1.2 | -1.4 | -1% | i | 0.72 | 4.0 | 8.0
O=C(O)CSCC(=O)Nc1ccc(C(=O)O)cc1 | 7.1 | 0.1 | -8% | / | 0.77 | 0.9 | /
COC(=O)Nc1ccc2c(c1)ncn2C1CCCCC1 | -2.5 | -3.6 | 1% | / | 0.66 | 4.2 | /
Fc1ccc(CSc2nnc(Cc3sc(-c4ccccc4)nc3-c3ccccc3)o2)cc1 | 3.1 | 1.9 | -9% | / | 0.75 | 1.9 | /
COc1cccc(CNC(=O)c2cc3c(c(-c4cccc(-c5cccc(C#N)c5)c4)n2)[C@H](CCO)N(S(=O)C(C)(C)C)C3)c1 (stereo partly specified) | / | 10.0 | / | / | / | / | -2.4
CN1CCN(C(=O)c2cc3nc(-c4ccc(Cl)cc4)cc(C(F)(F)F)n3n2)CC1 | -0.7 | -2.0 | -1% | / | 0.7 | -37 | /
COc1ccc(-c2ccc(-c3cc(=O)oc4cc(OC)c(OC)c(OC)c34)cc2)cc1 | / | -1.4 | / | i | / | / | -2.0
Cc1cccc(C)c1NC(=S)Nc1ccc(F)cc1 | -1.4 | 0.0 | 2% | i | 0.7 | 0.8 | 7.3
CCN(CC)C(=S)Nc1cc(C(=O)OC)ccc1C(=O)OC | 38* | -0.4 | -7% | / | 0.66 | -3.7 | /
O=C(NNC(=O)c1cccs1)c1ccc(S(=O)(=O)N2CCCCC2)cc1 | 0.1 | 1.4 | 32% | i | 0.68 | 2.7 | 4.2
O=C(CCc1ccccc1)NCc1ccc(F)cc1 | -1.5 | -0.2 | / | i | 0.67 | 1.9 | 0.3
Cc1ccc(C(=O)Nc2ccc(S(=O)(=O)Nc3ncccn3)cc2)cc1[N+](=O)[O-] | -2.9 | -2.4 | -4% | i | 0.72 | 2.0 | 4.8
CCC1CCCCN1C(=O)CCCc1ccccc1 (stereo unspecified) | 3.8 | -4.5 | -15% | i | 0.63 | 2.4 | -6.9
C=CCn1c2ccccc2c(=O)c2cc(C#Cc3ccccn3)ccc21 | / | 0.3 | / | i | / | -83 | -6.5

Bioassay records from PubChem BioAssay.
